# High-throughput results as filed in PubChem BioAssay.
# Choline anaer gr: choline-fed anaerobic bacterial growth inhibition; 55,000 tested, 0.2% active; calls only; Gram-negative bacterium anaerobic choline minimal medium, absorbance growth; active compounds read low; many inactives read as strong as hits in the columns shown; AID 1963822;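 active = growth z-score on choline under -2 at 7 or 20 h with little or no fall on glycerol, limits in tiers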;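 note: stock transfer was 300 nL into about 50 µL; the organism is E. coli; final concentration not given here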
# Choline anaer gr early: also measured in Choline anaer gr; calls as there; z-score; measured here: choline growth z-score, timepoint 1;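 score of optical density at 7 h as mean of two plates; lower means less growth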
# * hit, by the source's call; i = inactive; & = joins results of further samples. An excerpt (hit frequency here may not be typical).
SMILES,Choline anaer gr,Choline anaer gr early
O=C(c1ccc(Cl)cc1)N1CCN(CCc2ccccn2)CC1,i,-0.28
C=Cc1ccc(CSc2nccn3nc(-c4ccc(F)cc4)cc23)cc1,i,0.36
COc1ccc(-n2nnnc2C2CCN(S(=O)(=O)c3cccc(Br)c3)CC2)cc1,i,0.42
Cc1ccc(S(=O)(=O)c2cnc(N3CCN(c4ccccn4)CC3)nc2N)cc1,i,-0.94
Cn1cc2nc(SCC(=O)Nc3cc(F)ccc3F)n(C3CCCC3)c(=O)c2n1,i,-0.58
CC(=O)Nc1ccc(NC(=O)Cn2nc(N3CCN(c4ccc(F)cc4)CC3)ccc2=O)cc1,i,-0.37
Cc1cccc(CSc2nc(=O)n(C3CCCC3)c3c2CCC3)c1,i,2
COC(=O)c1c(C)[nH]c(C(=O)N2CCC(CC(=O)N3CCN(c4ccc(OC)cc4)CC3)CC2)c1C,i,0.3
CS(=O)(=O)NCc1nnc(C(=O)Nc2ccc(F)cc2)s1,i,-1.3
Cc1cccc(CN2CC=C(c3noc(CCC(=O)N4CCC(N5CCCCC5)CC4)n3)CC2)c1,i,-0.59
CN(CCNC(=O)c1[nH]nc2c1CCc1ccccc1-2)C1CCCCC1,i,-0.99
Cc1ccc(S(=O)(=O)c2cnc(N3CCC(C(N)=O)(N4CCCCC4)CC3)nc2N)cc1,i,-0.53
Clc1ccccc1CN=C1Nc2ccccc2NC12CCCCCC2,i,-2.3
C[N+]1(CCCCC[N+]2(C)CCCC2)CCCC1,i,0.31&0.38
CN=C(N)NCCCC(N)C(=O)O (stereo unspecified),i,0.66
Cc1ccc(-n2ccc(=O)c(C(=O)Nc3ccc(S(N)(=O)=O)cc3)n2)cc1,i,1.2
COc1ccc(Cl)cc1NC(=O)c1c(-c2ccc(F)cc2)noc1N1CCOCC1,i,0.02
Cc1noc(C)c1C1CCCN1C(=O)c1cc(-c2ccccc2Cl)on1 (stereo unspecified),i,-0.55
Cc1cc(N2CCCC2)nc(Nc2ccc(NC(=O)Nc3cccc(Cl)c3)cc2)n1,i,-0.45
CCOC(=O)c1ccc(NC(=O)N2CCC(n3nnc4cc(C(=O)N(C)C)ccc43)CC2)cc1,i,-0.22
O=C1Nc2cc(C(=O)N3CCc4ccccc4C3)ccc2N2CCCCC12 (stereo unspecified),i,1.1
COc1ccc(NC(=O)c2ccnc(Nc3cc(OC)cc(OC)c3)c2)cc1,i,0.06
COCCNS(=O)(=O)c1cc(-c2cc(C)no2)sc1C,i,-0.32
CC1CCN(C(=O)C2CCCN(c3ncc(-c4cccc(F)c4)cn3)C2)CC1 (stereo unspecified),i,1
Cc1cc(=O)n2[nH]c(C3CC3)nc2n1,i,-1.2
CCC(C)NC(=O)Cn1nc2c3sc(N(C)C)nc3ncn2c1=O (stereo unspecified),i,-0.41
Cc1nc2nc[nH]n2c(=O)c1NC(=O)Nc1ccc2c(c1)OCCO2,i,0.05
Cc1cc(=O)n2[nH]c(CN(C(=O)C(C)C)c3ccc(F)cc3)nc2n1,i,-0.12
CCS(=O)(=O)N1CCCN(C2=NS(=O)(=O)C(c3ccc(F)cc3)=C2C)CC1,i,-0.42
COc1ccc(NC(=O)c2nnc(C3CCN(C(=O)c4cc(OC)cc(OC)c4)CC3)s2)cc1,i,0.57
CCn1nc(C)c(CCN(C)C(=O)Nc2ccc(Br)c(C)c2)c1C,i,-0.01
Cc1cccc(Cn2cccc2CNC(=O)NCC2CCCO2)c1 (stereo unspecified),i,0.36
Cc1ccc(NS(=O)(=O)c2cc(-c3cc(C)[nH]n3)ccc2C)c(C)c1,i,-0.57
COc1cc(/C=C/C(=O)N2CCCCCC2)cc(OC)c1OC,i,0.15
CCCCOc1ccc(C(=O)NCCc2sc3nc(-c4ccc(OC)cc4)nn3c2C)cc1,i,0.98
CCCNC(=O)c1cn(C)nc1S(=O)(=O)N1CCC(C)CC1,i,0.47
O=C(Nc1ccc2c(c1)OCCO2)N1CCCC1c1ccccc1Cl (stereo unspecified),i,-1.9
CC(=O)N(Cc1ccccc1C)c1nc2ccccc2n(CC(=O)Nc2ccccc2Cl)c1=O,i,1.5
CC1(C(=O)NC2CCCCC2)Cn2c(ccc2-c2ccccc2)C(=O)N1Cc1ccc2c(c1)OCO2 (stereo unspecified),i,-1.6
CC(C)OC(=O)c1cc2ccsc2n1CC(=O)Nc1ccccc1F,i,1.6
Cc1ccc2c(=O)c3ccccc3n(CCCN)c2c1C,i,-2.4
CCc1nc(-c2cc(S(=O)(=O)N3CCC(C(=O)N(CC)CC)CC3)c(C)s2)no1,i,-0.61
Cc1sc2nc3c(C(=O)N4CCN(c5ccccc5)CC4)cccn3c(=O)c2c1C,i,-0.63
C=CCOc1ccc(C2CC(=O)Nc3c2c(C)nn3-c2ccc3nnc(C)n3n2)cc1OC (stereo unspecified),i,-0.85
CCN1c2ccccc2NC2=C(C(=O)CC(C)(C)C2)C1c1ccccc1OC (stereo unspecified),i,-0.16
CCOc1ccc2nc(-n3nc(C)c4c3NC(=O)CC4c3c(C)sc4ccccc34)sc2c1 (stereo unspecified),i,-0.59
O=C1CN(Cc2ccccc2F)S(=O)(=O)c2ccccc2N1Cc1ccc(F)cc1,i,0.11
Cc1ccc(CNC(=O)c2cc(C)nc3c2c(C)nn3-c2ccccc2)cc1,i,-0.29
CCc1cc(C2CCCN2C(=O)c2ccnn2CC)on1 (stereo unspecified),i,-0.32
COc1ccc(Nc2ncnc3ccc(C)cc23)cc1,i,-0.45
Cc1cccc(C(=O)Nc2cc3c(cc2S(=O)(=O)C2CCCCC2)n(C)c(=O)c(=O)n3C)c1,i,0.65
O=c1[nH]cnc2nc(N3CCc4ccccc4C3)sc12,i,-0.76
O=C(NC1CCCCC1)c1nc(Nc2ccc(F)cc2)c2ccccc2n1,i,1.5
O=C(Nc1ccc(F)cc1)N1CCC2(CC1)Nc1ccccc1-n1cccc12,i,-1.1
Cc1ccc(-c2csc(Cc3nc(-c4ccc(F)cc4)no3)n2)cc1,i,0.27
CCc1cc(-c2csc(S(=O)(=O)Nc3ccc(F)c(Cl)c3)c2)on1,i,-0.52
O=C(c1ccc2nc3sc4c(c3c(=O)n2c1)CCCC4)N1CCN(c2cccc(Cl)c2)CC1,i,0.63
O=C(COc1ccccc1-c1nc(-c2ccccc2)no1)NC1CCCC1,i,0.08
CCN(CC)c1ccc(NS(=O)(=O)c2cc(-c3nc(C)c(C)s3)sc2C)c(C)c1,i,1.1
O=C(CN1CCN(Cc2ccccc2Cl)S1(=O)=O)Nc1ccc(Cl)cc1,i,0.1

# An excerpt from above in order of length of the SMILES, ascending:
SMILES,Choline anaer gr,Choline anaer gr early
CCc1cc(C2CCCN2C(=O)c2ccnn2CC)on1 (stereo unspecified),i,-0.32
O=C(NC1CCCCC1)c1nc(Nc2ccc(F)cc2)c2ccccc2n1,i,1.5
Cc1ccc(CNC(=O)c2cc(C)nc3c2c(C)nn3-c2ccccc2)cc1,i,-0.29
C=CCOc1ccc(C2CC(=O)Nc3c2c(C)nn3-c2ccc3nnc(C)n3n2)cc1OC (stereo unspecified),i,-0.85
CCOc1ccc2nc(-n3nc(C)c4c3NC(=O)CC4c3c(C)sc4ccccc34)sc2c1 (stereo unspecified),i,-0.59
O=C(c1ccc2nc3sc4c(c3c(=O)n2c1)CCCC4)N1CCN(c2cccc(Cl)c2)CC1,i,0.63
Cc1cccc(C(=O)Nc2cc3c(cc2S(=O)(=O)C2CCCCC2)n(C)c(=O)c(=O)n3C)c1,i,0.65

# Following part:
SMILES,Choline anaer gr,Choline anaer gr early
COc1ccccc1NC(=O)N1CCN(S(=O)(=O)c2ccc3c(ccn3C)c2)CC1,i,0.03
Clc1ccc(N2CCN(c3ccc(Cl)nn3)CC2)cc1,i,0.55
Cc1ccc(NS(=O)(=O)c2cc(-c3nc(C(C)(C)C)cs3)cs2)c(Br)c1,i,0.16
Cc1cccc(NC(=O)C(Cc2ccccc2)N2Cc3ccccc3C2=O)n1 (stereo unspecified),i,0.6
COC(=O)c1ccccc1NC(=O)c1cc(=O)c2cc(C)ccc2o1,i,-0.61
Cc1ccccc1CSc1n[nH]c(=O)c2cc(-c3ccc(F)cc3)nn12,i,-0.32
CCCCCCCCCCCCCCCC(=O)N[C@@H](COP(=O)(O)O)C(=O)O,i,0.33
Cn1ncc2c(Nc3ccc(F)cc3F)ncnc21,i,-0.41
CCC1CCCCN1CCCNC(=O)CC1CCN(S(=O)(=O)c2cccs2)CC1 (stereo unspecified),i,1.3
Cc1ccc(-c2cc(C(=O)O)c3c(-c4ccc(C)cc4)[nH]nc3n2)cc1,i,0.66
Cc1ccccc1CSc1nc(=O)n(C2CCCC2)c2c1CCC2,i,1.1
COc1ccccc1OCC(=O)Nc1cc(C)nn1-c1ncnc2c1cnn2-c1ccc(F)cc1,i,-1.4
CC(Sc1nnc2ccc3ccccc3n12)C(=O)Nc1ccccc1 (stereo unspecified),i,1.3
Cc1ccc(C)c(N2CCN(c3ncc(S(=O)(=O)c4ccccc4)c(N)n3)CC2)c1,i,-1.3
Cc1ccc(C(C)C)c(OCC(=O)Nc2ccc3c(c2)NC(=O)CO3)c1,i,-0.09
Cc1nn2c3c(cnc2c1-c1ccc(F)cc1)C(=O)CC(c1ccccc1)C3 (stereo unspecified),i,0.46
Cc1noc(C)c1S(=O)(=O)Nc1cc2c(cc1Oc1ccccc1)n(C)c(=O)c(=O)n2C,i,0.25
O=C(CN1C(=O)c2ccccc2C1=O)Nc1ccc2c(c1)N(C(=O)c1ccccc1)CCC2,i,0.23
CCOC(=O)C1=C[C@@H](OC(CC)CC)[C@H](NC(C)=O)[C@@H](N)C1,i,0.33
CCOC(=O)c1[nH]c(C)c(CCC(=O)NCCN(C)C)c1C,i,-0.13
Cc1ccc2[nH]cc(CCNC(=O)c3ccc4c(c3)nc(C)c(=O)n4Cc3ccccc3)c2c1,i,-0.31
Cc1cc(C)cc(S(=O)(=O)N2CCC3(CC2)NCCN=C3NCc2ccc(F)cc2)c1,i,-0.85
Clc1ccc(-c2noc(-c3cccnc3NCc3ccccn3)n2)cc1,i,-1.6
O=S(=O)(c1ccccc1F)N1CCN(c2nc3ccccc3n3cccc23)CC1,i,1.4
Cc1ccc(CNC(=O)C2(C)CCCN(C(=O)c3cccc(Br)c3)C2)cc1 (stereo unspecified),i,0.31
CCC(SC1=Nc2ccccc2C2=NC(C)C(=O)N12)C(=O)Nc1cc(F)ccc1F (stereo unspecified),i,-1
COCC(=O)N1CCN(c2cc(=O)n(C(C)C)c(=O)n2C(C)C)CC1,i,-0.4
Cc1[nH]c2ccc(C(=O)NC3CC3)cc2c1C,i,-0.63
CCOC(=O)c1cc2n(n1)CC(C)(C(=O)NC1CCCC1)N(c1ccc(F)cc1)C2=O (stereo unspecified),i,-0.17
CCOc1cccc(NC(=O)CCc2c(C)nc3cc(-c4cc(OC)cc(OC)c4)nn3c2C)c1,i,-0.23
Fc1ccccc1-c1nnc2sc(/C=C/c3ccccc3)nn12,i,0.07
COc1ccccc1-c1nnc2sc(-c3cc4ccccc4[nH]3)nn12,i,-2.1
Cc1c(C)n(-c2ccccc2)c2ncn(CCC(=O)NC3CCS(=O)(=O)C3)c(=O)c12 (stereo unspecified),i,-1.3
O=C(COc1cc(O)c2c(=O)c3ccccc3oc2c1)c1ccc(Br)cc1,i,0.73
CCOC(=O)c1cc(S(=O)(=O)NCCC(=O)NC(C)(C)C)cn1C,i,0.01
Cc1cccc(NC(=O)N2CCSc3ncccc32)c1,i,0.14
Cc1nc2c(nc(SCc3ccc(Cl)cc3)n2C)c(=O)[nH]1,i,2.3
CCCCN1C(=O)c2c(-n3cccc3)c3cc(C)ccc3n2CC1(C)C(=O)NC1CCCC1 (stereo unspecified),i,1.4
CCNS(=O)(=O)c1ccc(OC)c(-c2noc(C)n2)c1,i,-0.36
CCC1CCCCN1C(=O)CSc1nc(=O)c2c(C(=O)OC)cc(C)nc2n1C1CC1 (stereo unspecified),i,-0.2
O=C(CSc1nnc2n(Cc3ccco3)c(=O)c3sccc3n12)N1CCc2ccccc2C1,i,-2.4
Cc1ccc(NS(=O)(=O)c2cn(C)c(C)n2)cc1,i,-2.1
O=C(NC1CCc2ccccc21)c1nc[nH]c1C(=O)NCc1ccccn1 (stereo unspecified),i,-1.2
COc1ccc(Nc2nc(-c3ccc(OC)cc3)c(CCC(=O)O)s2)cc1,i,-0.05
CC(C)c1cc(C2CCCN2Cc2cc(Cl)ccc2O)no1 (stereo unspecified),i,-0.24
Cc1ccc(C)c(CSc2nnc3n(CCCOC(C)C)c(=O)c4cc(Cl)ccc4n23)c1,i,0.25
CCCc1nnc2c3c4c(sc3ncn12)CCCC4,i,-0.07
Cc1ccc(CNC(=O)Cn2c(=O)n(CCC(C)C)c(=O)c3cccnc32)cc1,i,-0.76
O=C(Nc1ccc(F)cc1)c1nc(-n2cnnc2)ccc1Br,i,-1.5
COc1ccc(/C=C\c2onc(C)c2S(=O)(=O)N2CCC(C(=O)N3CCc4ccccc4C3)CC2)cc1,i,0.64
Cc1ccc(-c2noc(-c3ccccc3S(=O)(=O)NCCC(C)C)n2)cc1,i,0.68
Cc1nc(Cn2c(=O)oc3cc(S(=O)(=O)N(C)Cc4ccccc4)ccc32)no1,i,-0.47
O=C(NCc1ccccc1)c1ccc(-n2nc(OCc3ccc(Cl)cc3)ccc2=O)cc1,i,1.2
COc1ccc(-c2cnc3cc(-c4ccc(C)cc4)nn3c2N)cc1OC,i,1.1

# Ordered by the number under Choline anaer gr early (rising): four of the compounds above.
Compound,Choline anaer gr early
O=C(CSc1nnc2n(Cc3ccco3)c(=O)c3sccc3n12)N1CCc2ccccc2C1,-2.4
Cc1nc(Cn2c(=O)oc3cc(S(=O)(=O)N(C)Cc4ccccc4)ccc32)no1,-0.47
COc1ccc(Nc2nc(-c3ccc(OC)cc3)c(CCC(=O)O)s2)cc1,-0.05
COc1ccc(-c2cnc3cc(-c4ccc(C)cc4)nn3c2N)cc1OC,1.1

# 3 of these compounds, set out differently:
# Second line of a record – Choline anaer gr	Choline anaer gr early
Cc1ccc(CNC(=O)Cn2c(=O)n(CCC(C)C)c(=O)c3cccnc32)cc1
 : i	-0.76
O=C(Nc1ccc(F)cc1)c1nc(-n2cnnc2)ccc1Br
 : i	-1.5
COc1ccc(/C=C\c2onc(C)c2S(=O)(=O)N2CCC(C(=O)N3CCc4ccccc4C3)CC2)cc1
 : i	0.64
